Compound activity deposited in PubChem by National Center for Advancing Translational Sciences (NCATS).
ClpP mod = qHTS Assay for Activators of ClpP; ATP-dependent Clp protease proteolytic subunit (Bacillus subtilis (strain 168)), P80244; purified B. subtilis ClpP, FRET peptide cleavage, 20 min; Potency, µM (series often up to 57.5 µM), inactives show at the highest dose activity change, negative = active; 340,000 tested, 1.9% active; AID 651965, 2013; active = well fitted falling curve with a large enough effect; inconclusive = small, poorly fitted or top-dose-only effect; inactive = no such curve, though single readings can be large or run the other way; also: potency is read from the fitted curve at half-maximal effect; the source files actives as falling curves though it sought activators and does not explain the sign; nearly all actives have a fitted effect of over 65% in size; many hits overshoot -100%
Target sequence (P80244 whole entry, looked up): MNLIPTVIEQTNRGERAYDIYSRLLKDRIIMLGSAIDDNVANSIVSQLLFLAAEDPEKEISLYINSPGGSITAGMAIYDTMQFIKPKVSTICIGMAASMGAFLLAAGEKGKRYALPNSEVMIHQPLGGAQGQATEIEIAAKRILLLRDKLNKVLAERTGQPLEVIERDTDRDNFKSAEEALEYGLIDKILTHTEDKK
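FRET quenching reversal measured ClpP activation: 10 microg/mL B. subtilis ClpP at pH 8 with the FRET-FV decapeptide, read at 430 nm after 320 nm excitation. The 20-min minus 0-min signal was scaled between DMSO/no-enzyme wells and ADEP (5.8 microM final).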
D2 PAM = human D2 receptor positive allosteric modulation; DiscoveRx D2 beta-arrestin cells, luminescence, 90 min; 100% = 57 uM dopamine signal; AID 624464; potentiation, % (test concentration not listed); 360,000 tested, 0.23% active; active = potentiation of 50% or more; inconclusive = 30% to 50%; inactive = 30% or less;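 also: compound concentration not given in the record; tested on top of an EC20 dose of dopamine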
Target sequence (P14416 whole entry, looked up): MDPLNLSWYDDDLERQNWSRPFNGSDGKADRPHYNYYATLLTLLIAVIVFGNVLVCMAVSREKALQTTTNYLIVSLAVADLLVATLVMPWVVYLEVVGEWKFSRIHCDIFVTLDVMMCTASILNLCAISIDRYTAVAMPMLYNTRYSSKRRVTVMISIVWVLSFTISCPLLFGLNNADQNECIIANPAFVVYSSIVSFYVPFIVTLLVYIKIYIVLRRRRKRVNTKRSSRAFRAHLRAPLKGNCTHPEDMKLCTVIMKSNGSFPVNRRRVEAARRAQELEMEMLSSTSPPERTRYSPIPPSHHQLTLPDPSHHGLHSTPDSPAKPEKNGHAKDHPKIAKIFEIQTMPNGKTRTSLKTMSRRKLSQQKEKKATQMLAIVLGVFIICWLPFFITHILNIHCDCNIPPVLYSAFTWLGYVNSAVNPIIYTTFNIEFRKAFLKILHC
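PathHunter beta-arrestin assay in DiscoveRx D2 cells. Compounds were added with an EC20 of dopamine (50 nM final) for 90 min at 37 deg C. Luminescence was read 1 h after detection reagent, with 57 uM dopamine as the EC100 control.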
* = called active by the depositor; u = inconclusive. This is a subset, so the mix of outcomes need not match the whole.

SMILES | ClpP mod | D2 PAM
COc1ccc(CCCNC(=O)C2(C)Cc3c(-c4ccc(C(N)=O)cc4)ccnc3O2)cc1 (centres undefined) | -5.6% | 6.1
CN(C)c1ccc2c(=O)cc[nH]c2c1 | 5.7% | -3.1
Cn1c(=O)c2c(-c3ccccc3)n(-c3ccccc3F)cc2n(C)c1=O | u | -1.9
C=CCNc1ncnc2c1ncn2[C@H]1CN(Cc2cccc3ccccc23)C[C@@H](CO)O1 | 0.5% | -10.3
CCCC(=O)N1CCC1(C)C(=O)Nc1ccc2scnc2c1 (centres undefined) | 0.7% | -3.1
COc1cc(-c2coc3c(C(=O)NCc4ccc(C(F)(F)F)cc4)cccc23)ccc1O | -26.4% | -4.3
CCNC(=O)C1(C)CCCN(C(=O)c2nc(C)oc2C)C1 (centres undefined) | -4.2% | 0.8
O=C(NCCC(F)(F)F)C1Cc2c(-c3ccc(Cl)cc3)ccnc2O1 (centres undefined) | -7.9% | -5.7
CC(=O)NC(c1cccc(F)c1)c1nc(-c2cc3ccccc3o2)cs1 (centres undefined) | 0.0% | -2.0
CCc1nc2c(OCc3ccc(C(F)(F)F)cc3)cccn2c1N(C)C(=O)c1ccc(OC)cc1 | 2.1% | -9.9
O=C(Nc1cccc(Oc2ccccc2)c1)C1Cc2c(-c3ccccc3)ccnc2O1 (centres undefined) | -15.0% | -5.3
O=C(NC1CC1)c1ccc2sc([C@@H]3O[C@H](CO)[C@H](O)[C@H](O)[C@H]3O)nc2c1 | -3.1% | -6.2
CSc1ccc(CN2CCC(C)(Oc3ccc(C(C)=O)cc3)C2)cc1 (centres undefined) | 0.3% | -17.0
O=C(CSc1nc2ccccc2c(=O)n1-c1ccccc1)Nc1ccc2c(c1)CCC2 | -9.0% | 0.3
CN(C)CCCNC(=O)c1cccc(-c2ccc3nccn3c2)c1 | -23.9% | -6.8
CC(C)(C)c1ccc(S(=O)(=O)NC(=O)C2(C)CCN2C(=O)CC2CCCC2)cc1 (centres undefined) | 0.9% | -5.5
C=CCN(CC=C)Cc1cc(=O)oc2cc(OC)ccc12 | u | 1.1
CCCS(=O)(=O)NC(=O)C1(C)CCN(C(=O)Cc2ccc(F)cc2)C1 (centres undefined) | 2.6% | -5.0
Cn1c(NCc2ccccc2F)nc2cc(-c3ccccc3)sc2c1=O | -27.0% | -8.8
COc1cccc(-c2cc(NC(C)=O)c3ncc(-c4cccc(C(C)=O)c4)n3c2)c1 | -4.0% | -8.5
CC(C)NC(=O)C1Cc2c(-c3ccc4c(c3)OCO4)ccnc2O1 (centres undefined) | 4.5% | -12.0
COc1cc(Nc2ccn3nccc3n2)cc(OC)c1OC | 1.4% | -3.9
CCNC(=O)C1CCCN(C(=O)c2cccc(OC(F)(F)F)c2)CC1 (centres undefined) | -2.7% | -1.3
COc1ccccc1-c1csc(C(C)(O)c2ccccc2)n1 (centres undefined) | -0.3% | -3.5
CC(=O)c1cccc(-c2ccnc3c2CC(C(=O)Nc2ccc(C(C)C)cc2)O3)c1 (centres undefined) | 0.6% | 1.7

Arranged by SMILES length (descending): some entries from above
SMILES | ClpP mod | D2 PAM
O=C(NC1CC1)c1ccc2sc([C@@H]3O[C@H](CO)[C@H](O)[C@H](O)[C@H]3O)nc2c1 | -3.1% | -6.2
COc1ccc(CCCNC(=O)C2(C)Cc3c(-c4ccc(C(N)=O)cc4)ccnc3O2)cc1 (centres undefined) | -5.6% | 6.1
COc1cc(Nc2ccn3nccc3n2)cc(OC)c1OC | 1.4% | -3.9

Going on with the list.
SMILES | ClpP mod | D2 PAM
COc1ccc(NC(=O)Nc2nc(C(N)C3CCCCC3)cs2)cc1 (centres undefined) | -1.5% | -6.1
CN(C)c1cccc2c(S(=O)(=O)NC(=O)[C@H]3O[C@@H](n4cnc5c(N)ncnc54)[C@H](O)[C@@H]3O)cccc12 | -7.5% | 11.7
CC1(C(=O)Nc2ccccc2)CCN1C(=O)C1(c2ccccc2)CC1 (centres undefined) | 1.4% | -4.0
CC1(C(=O)NS(=O)(=O)C2CC2)CCN(C(=O)c2cccc(OC(F)(F)F)c2)C1 (centres undefined) | -1.4% | -4.0
CCCCn1nnnc1C(C1CC1)N1CCN(C/C=C/c2ccccc2)CC1 (centres undefined) | -4.0% | -14.0
CCN(CC)C(=O)c1csc([C@H]2C[C@H](O)[C@@H](CO)O2)n1 | -0.9% | -7.4
CC1(C(=O)Nc2ccc(Cl)cc2)Cc2c(-c3ccc(C(N)=O)cc3)ccnc2O1 (centres undefined) | -5.3% | -2.4
O=C(NCc1cccs1)c1ccc(-c2ccc(F)c(F)c2)c2ccoc12 | u | -0.4
CCNC(=O)C1(C)CCN(Cc2noc(-c3c(C)noc3C)n2)C1 (centres undefined) | 0.3% | -3.5
CCC(C)C(NC(=O)C(Cc1ccc(O)cc1)NC(=O)OCc1ccccc1)C(=O)OC (centres undefined) | 1.8% | 2.4
CCCCNC(=O)C1(C)CCCCN1C(=O)c1cc(C)n(C(C)(C)C)n1 (centres undefined) | 0.9% | -6.8
COc1ccccc1NC(=O)Nc1nc(C(N)Cc2ccccc2)cs1 (centres undefined) | -4.7% | -10.3
CC(=O)Nc1ccc(-c2ccnc3c2CC(C(=O)Nc2ccc(C(C)C)cc2)O3)cc1 (centres undefined) | 4.5% | -1.6
CC1(C)NC(=O)C(CCc2ccccc2)NC1=O (centres undefined) | 2.4% | -1.1
CNc1ncnc2c1ncn2[C@H]1CN(Cc2ccc3c(c2)OCO3)C[C@@H](CO)O1 | 0.9% | -1.4
Cc1ccc(C(NC(=O)C2CCN(CCOc3ccc(Cl)cc3Cl)CC2)c2ccccn2)cc1 (centres undefined) | -5.2% | -10.2
CCOC(=O)C1=CCN(S(=O)(=O)c2ccc(C)cc2)C1c1ccc(Cl)c(Cl)c1 (centres undefined) | -0.3% | -4.5
COc1ccccc1NC(=O)Nc1nc(C(N)Cc2ccc(C(F)(F)F)cc2)cs1 (centres undefined) | -2.5% | -4.2
COc1ccc(CCN2C(=O)CCC3=C2CCCC3=O)cc1OC | -0.8% | -1.2
CCOC(=O)N(C)c1c(CC)nc2c(OCc3ccc(F)cc3)cccn12 | -3.5% | -4.4
COC(=O)c1cc(=O)nc(NN=Cc2ccco2)s1 | 3.1% | -3.1
Cn1c(=O)c2cc(NC(=S)NC3CC3)ccc2n1Cc1ccc(F)cc1 | 4.1% | -3.3
C=CC[C@H]1C(C(=O)OCC)=CC[C@@H](c2ccccc2)N1S(=O)(=O)c1ccc(C)cc1 | 0.0% | -4.5
CC(=O)c1sc(Nc2ccccc2)nc1C | -17.6% | -4.5
CC1=C(C(=O)N(C(C)C)C(C)C)CC(CC(=O)NCCCCc2ccccc2)C(=O)N1CCCN1CCCC1=O (centres undefined) | 0.3% | -4.5

In the list so far, these have a tert-butyl group:
SMILES | ClpP mod | D2 PAM
CC(C)(C)c1ccc(S(=O)(=O)NC(=O)C2(C)CCN2C(=O)CC2CCCC2)cc1 (centres undefined) | 0.9% | -5.5
CCCCNC(=O)C1(C)CCCCN1C(=O)c1cc(C)n(C(C)(C)C)n1 (centres undefined) | 0.9% | -6.8

Next records
SMILES | ClpP mod | D2 PAM
O=C(O)Cc1cccc2c(=O)cc(-c3ccccc3)oc12 | 0.6% | -5.1
CC1(Oc2ccccc2-c2ccno2)CCN(Cc2csc3ccccc23)C1 (centres undefined) | u | -43.6
O=C(NCc1ccco1)c1ccc2sc([C@@H]3O[C@H](CO)[C@@H](O)[C@H]3O)nc2c1 | -7.4% | -12.4
CC(=O)NC(C)(c1ccccc1)c1nc(/C=C/c2ccccc2)cs1 (centres undefined) | -19.5% | -10.5
CCOC1=C2CN(S(=O)(=O)c3ccc(C)cc3)[C@H](c3cccs3)C[C@H]2[C@H]2C(=O)N(c3ccccc3)C(=O)[C@H]2C1 | 0.2% | -4.0
O=C(Nc1cccc2cccnc12)c1ccc2sc([C@H]3C[C@H](O)[C@@H](CO)O3)nc2c1 | -2.2% | 0.5
O=C(NC(Cc1c[nH]c2ccccc12)C(=O)O)OCC1c2ccccc2-c2ccccc21 (centres undefined) | -1.7% | -6.5
CC1(C(=O)NS(=O)(=O)c2ccccc2)CCN1C(=O)CC(c1ccccc1)c1ccccc1 (centres undefined) | 1.7% | 1.2
COCCOC(=O)N1CCCCC1c1cc(C(=O)NCc2ccc(Cl)c(Cl)c2)no1 (centres undefined) | -1.7% | -6.7
C[C@H]1CN([C@@H](C)CO)S(=O)(=O)c2ccc(Br)cc2O[C@H]1CN(C)C(=O)CN(C)C | 0.6% | -4.1
CN(C)C(=O)c1cccc(-c2cnc3c(NC=O)cc(-c4ccccc4Cl)cn23)c1 | -16.4% | -9.6
CCOC(=O)C1(C)CCN1C(=O)c1ccccc1C(F)(F)F (centres undefined) | 2.3% | -11.3
COc1ccccc1-c1cc2nc(NCc3cccc(Cl)c3)ccn2n1 | 4.4% | 3.9
CC(=O)NC(c1ccccc1)c1nc(-c2ccc3ccccc3c2)cs1 (centres undefined) | 6.1% | 1.0
CCOc1ccc(CCN2C(=S)N([C@@H](CC(C)C)CN3CCC[C@@H]3CN3C(=S)NC[C@@H]3CC(C)C)C[C@@H]2Cc2ccc(O)cc2)cc1 | 0.4% | -12.8
O=C(NC(c1ccc(-c2ccccc2)cc1)c1cnccn1)C1CCN(CCCOc2ccccc2)CC1 (centres undefined) | -1.5% | -13.2
CC(C)C(N)c1csc(Nc2cc(Oc3ccccc3)ncn2)n1 (centres undefined) | 2.0% | -6.9
CCc1nc2ccc(C(=O)NC3CCN(Cc4ccccc4)CC3)cn2c1N(C)Cc1ccc(N(C)C)cc1 | -3.7% | -9.2
O=C(C1CCCCC1)N1CCC2CC1c1cc(-c3ccc4c(c3)OCO4)ccc12 (centres undefined) | -25.2% | -6.7
COc1ccc(NC(=O)C2(C)CCN2Cc2cccc(OC)c2OC)cc1OC (centres undefined) | -5.9% | -2.9
Cn1nccc1-c1coc2c(C(=O)N3CCOCC3)cccc12 | -4.2% | -4.0
CCNC(=O)C1(C)CCCN(C(=O)c2cc(-c3ccccc3)cs2)C1 (centres undefined) | 0.3% | -6.1
CC1(C(=O)Nc2ccccc2)CCN1C(=O)C1(c2ccc(Cl)cc2)CC1 (centres undefined) | 2.7% | -4.8
CC(C)N(C)c1ncnc2c1ncn2[C@H]1CN(Cc2ccc3c(c2)OCO3)C[C@@H](CO)O1 | -0.9% | 0.9
CSCCC(C(=O)Nc1c(C)cccc1C)N(Cc1ccccc1)Cc1ccccc1 (centres undefined) | -3.3% | -7.4

Structures shown so far that contain a furan ring, fused or not (six):
SMILES | ClpP mod | D2 PAM
COc1cc(-c2coc3c(C(=O)NCc4ccc(C(F)(F)F)cc4)cccc23)ccc1O | -26.4% | -4.3
CC(=O)NC(c1cccc(F)c1)c1nc(-c2cc3ccccc3o2)cs1 (centres undefined) | 0.0% | -2.0
O=C(NCc1cccs1)c1ccc(-c2ccc(F)c(F)c2)c2ccoc12 | u | -0.4
COC(=O)c1cc(=O)nc(NN=Cc2ccco2)s1 | 3.1% | -3.1
O=C(NCc1ccco1)c1ccc2sc([C@@H]3O[C@H](CO)[C@@H](O)[C@H]3O)nc2c1 | -7.4% | -12.4
Cn1nccc1-c1coc2c(C(=O)N3CCOCC3)cccc12 | -4.2% | -4.0

Next section:
SMILES | ClpP mod | D2 PAM
CC(=O)NC(c1cccc(F)c1)c1nc(-c2csc3ccccc23)cs1 (centres undefined) | -3.4% | -4.5
CC(=O)Nc1cccc(-c2ccnc3c2CC(C)(C(=O)NCCC(F)(F)F)O3)c1 (centres undefined) | u | -4.1
COc1ccc(OC)c(NC(=O)Nc2nnc([C@H]3C[C@H](O)[C@@H](CO)O3)s2)c1 | -0.6% | -4.0
COc1cc(CNc2ncnc3c2ncn3[C@H]2CN(Cc3cccs3)C[C@@H](CO)O2)cc(OC)c1OC | -1.3% | 3.8
CC1(C(=O)NCCC#N)CCN1C(=O)Cc1ccc(-c2ccccc2)cc1 (centres undefined) | 0.0% | -7.4
CCCCn1nnnc1C(c1cc2ccccc2o1)N1CCN(C/C=C/c2ccccc2)CC1 (centres undefined) | 1.0% | -12.0
O=C(NCc1ccc(C(F)(F)F)cc1)c1ccc(-c2cccnc2)c2ccoc12 | 4.9% | -28.7
O=C([C@H]1O[C@@H](n2ccc(=O)[nH]c2=O)[C@H](O)[C@@H]1O)N1CCC(F)(F)CC1 | -0.7% | -7.3
COc1ccc(CNC(=O)c2sc(=O)n(Cc3ccccc3C)c2C)cc1 | -1.2% | -0.6
CC(=O)Nc1ccc(NC(=O)C2Cc3c(-c4ccc(Cl)cc4)ccnc3O2)cc1 (centres undefined) | -0.1% | -9.7
Cc1c(C(=O)NCc2ccc(Cl)c(Cl)c2)sc(=O)n1Cc1ccc(C(=O)N(C)C)cc1 | 1.3% | -2.5
N#Cc1ccc(S(=O)(=O)N2CCCCC2c2cc(C(=O)Nc3cccc4c3CCCC4)no2)cc1 (centres undefined) | 0.0% | -2.4
CCN(CC)CCN1CCN(c2cnc(C)cn2)CC1 | u | -5.8
Cc1ccc(S(=O)(=O)N2C[C@H]3[C@H]4C(=O)N(Cc5ccccc5)C(=O)[C@H]4CC(=O)[C@H]3[C@@H]2c2ccccc2Cl)cc1 | 0.4% | 3.4
O=C(Nc1ccccc1Cl)c1cc(C2CCCN(C(=O)c3ccc4c(c3)CCO4)C2)on1 (centres undefined) | 0.2% | -6.4
CCOCCC(=O)Nc1ccc2c(c1)c(=O)n(C)n2-c1ccccc1F | 5.0% | -5.9
